GIRK2 activ: activators of human GIRK2 potassium channels. P48051. HEK293-GIRK2 thallium flux, Thallos fluorescence. calls only for hits at 25 µM. hit rate 0.05% among 63,000. AID 1259325;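 active = among the strongest 0.2% of first-round signals and kept after retests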;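 note: first round at about 10 µM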
Target sequence (P48051 whole entry, looked up): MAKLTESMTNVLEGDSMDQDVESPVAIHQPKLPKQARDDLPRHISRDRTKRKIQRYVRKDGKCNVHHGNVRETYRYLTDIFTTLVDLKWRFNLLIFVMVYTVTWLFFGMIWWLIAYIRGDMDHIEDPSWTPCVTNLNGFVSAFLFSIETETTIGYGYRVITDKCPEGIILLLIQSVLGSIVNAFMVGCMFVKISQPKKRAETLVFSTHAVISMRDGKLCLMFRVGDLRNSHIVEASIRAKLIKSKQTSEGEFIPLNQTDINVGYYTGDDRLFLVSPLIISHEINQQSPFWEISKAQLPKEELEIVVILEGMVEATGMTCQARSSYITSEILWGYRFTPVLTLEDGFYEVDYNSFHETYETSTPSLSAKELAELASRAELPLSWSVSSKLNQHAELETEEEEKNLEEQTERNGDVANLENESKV
Calls only; i = inactive; + = active, no number.

SMILES | GIRK2 activ
O=C(Nc1cccc(Cl)c1)c1cc(=O)c(OCc2ccc(F)cc2)co1 | i
Cc1ccc(CNC(=O)CCc2nc3sc4c(c3c(=O)[nH]2)CCCCC4)o1 | i
O=C(c1ccc(=O)[nH]c1)N1CC(c2nc(-c3ccccn3)no2)C1 | i
Cc1oc(-c2ccc(Cl)cc2Cl)cc1C(=O)NCCO | i
CCn1c(=O)c2ccccc2n(Cc2nc(-c3ccccc3Br)no2)c1=O | i
COc1ccc(CNC(=O)CN2CCC3(CC2)N=C(c2ccc(C)cc2)C(=O)N3)cc1 | i
CC(C)CCN1C(=O)C(C)(C)COc2ccc(NC(=O)c3cc(C4CC4)on3)cc21 | i
COc1ccc(C2CCN(C(=O)c3cccc(C#N)c3)C2)cc1 (configuration not stated) | i
COCC1Cc2cc3c(c(OC)c2C(c2ccc(OC)c(OC)c2)C1COC)OCO3 (configuration not stated) | i
Cc1nccn1-c1ncc(NC(=O)c2ccco2)cn1 | i
CC(=O)Nc1ccc(C(=O)NCCN)cc1 | i
CSCCC(C)(O)CNC(=O)Nc1ccc(C(C)(C)C)cc1 (configuration not stated) | i
O=C(Nc1cc(C(F)(F)F)ccc1Cl)C1CCN(c2ccc(-c3cccnc3)nn2)CC1 | i
CCOc1cc(S(=O)(=O)N2CCOCC2)ccc1F | i
Cn1c(CN2CCN(C(=O)C3(c4ccccc4)CCOCC3)CC2)nc2ccccc21 | i
Cc1ccc(S(=O)(=O)c2ccc(C(=O)N3CCN(Cc4ccc5c(c4)OCO5)CC3)cn2)cc1C | i
COCC1CCCN(C(=O)NCCc2ccccc2)C1 (configuration not stated) | i
CC(C)c1ccc(/C=C(\C#N)c2nc3ccccc3s2)cc1 | i
Cc1cccc2sc(OC3CCN(C(=O)/C=C/c4ccc5c(c4)OCO5)CC3)nc12 | i
O=S(=O)(c1ccc(OC(F)(F)F)cc1)N(CCc1cccs1)Cc1cccnc1 | i
Cc1noc(CNC(=O)c2cc(C3CC3)on2)n1 | i
Cc1ccc(C(=O)NCCN2CCN(c3ccc(F)cc3)CC2)cc1C | i
CC1=C(C)CC2C(=O)N(c3ccc(O)cc3)C(=O)C2C1 (configuration not stated) | i
COc1cccc(Cn2c(=O)[nH]c3c(-c4ccccn4)nsc3c2=O)c1 | i
CCSc1ccccc1C(=O)N1CCc2nc(NC(=O)c3cc(C)on3)sc2C1 | i
SMILES | GIRK2 activ
O=C(c1ccco1)N1CCN(c2ncnc3sc(-c4ccccc4)cc23)CC1 | i
O=C(NCc1nn(CCN2CCCC2)c(=O)c2ccccc12)c1ccc2nsnc2c1 | i
O=C(Nc1ccccc1)OC1CCCC(NC(=O)c2ccc(Cl)s2)C1 (configuration not stated) | i
COc1ccc(NC(=O)C2CSCCC(=O)N2)cc1 (configuration not stated) | i
Cc1c(-c2nc(-c3ccc(F)cc3)no2)sc2ncn(CC(=O)N3CCCC3)c(=O)c12 | i
Cc1ccc(C)c(-n2c(C)c(C)n3c4c(=O)n(CC(N)=O)c(=O)n(C)c4nc23)c1 | i
O=C(NCC1COC2(CCCCC2)O1)C1CC(=O)N(c2ccc(F)cc2)C1 (configuration not stated) | i
CC(=O)Cn1c(=O)c2c(nc3n2CCN3c2cccc(C)c2)n(C)c1=O | i
Cc1nc(C)c(-c2ccc(=O)n(CCNS(=O)(=O)c3cccs3)n2)s1 | i
CCOC(=O)N1CCN(C(=O)C2CC2c2ccc(F)cc2)CC1 (configuration not stated) | i
Cc1cc(C)n(-c2ccc(=O)n(CCNC(=O)c3csc(-c4ccccc4)n3)n2)n1 | i
O=S(=O)(NCC1(c2ccc(F)cc2)CCOCC1)c1ccc(Br)s1 | i
C=CCn1c(=O)c(C(=O)Nc2cc(C)cc(C)c2)c(O)c2ccccc21 | i
COc1ccc(OC)c(NC(=O)CSc2ncnc3nc(N4CCc5ccccc5C4)sc23)c1 | i
COc1ccccc1NC(=O)Nc1ccc2c(c1)CCCN2C(=O)c1ccccc1 | i
CCOC(=O)CCC(=O)NCCN1CCN(S(C)(=O)=O)CC1 | i
CCOc1ccc(S(=O)(=O)N(CCOC)Cc2ccncc2)cc1F | i
Cc1nc(-n2nc(-c3cccs3)cc2NC(=O)c2ccco2)[nH]c(=O)c1Cc1ccccc1 | i
Cn1nnc2c(N3CCN(C(=O)/C=C\c4ccc5c(c4)OCO5)CC3)ncnc21 | i
O=C(NCC1CCN(C(=O)Oc2ccccc2)CC1)C(=O)NCC1CCCO1 (configuration not stated) | i
O=C(NCc1ccc(Cl)c(Cl)c1)O[C@H]1CCc2ccccc21 | i
O=C(COc1ccc(Cl)cc1)N1CCCC(c2nnc(C(F)(F)F)o2)C1 (configuration not stated) | i
O=C(O)Cn1nnc(N2CCOCC2)n1 | i
COc1cccc(COc2cn(C)c(C(=O)NC3CCCCCC3)cc2=O)c1 | i
O=C(c1cccc(-n2cnnn2)c1)N1CCN(C(=O)C2CC2c2cccs2)CC1 (configuration not stated) | i
SMILES | GIRK2 activ
Cn1c(=O)c2[nH]c(NCCO)nc2n(C)c1=O | i
CC(=O)c1ccc(S(=O)(=O)NC2CCCC(OC(=O)Nc3ccc(F)cc3)C2)cc1 (configuration not stated) | i
O=C(NCCOc1cc(N2CCOCC2)ncn1)C1CCCC1 | i
Nc1c(-c2nc(-c3ccccc3)cs2)nnn1-c1ccc(Br)cc1F | i
COc1ccc(-c2c(C(F)(F)F)oc3cc(O)cc(O)c3c2=O)cc1 | i
N#Cc1nc(-c2ccc(COc3ccc(Cl)cc3)o2)oc1NCCN1CCOCC1 | i
O=c1c(S(=O)(=O)N2CCCC2)cccn1Cc1noc(-c2ccco2)n1 | i
CCC(C(=O)NCc1n[nH]c(=O)c2ccccc12)c1ccccc1 (configuration not stated) | i
O=C(/C=C/c1ccccc1)N1CC(c2nc(-c3cccc(C(F)(F)F)c3)no2)C1 | i
O=C(c1nnn(-c2ccccc2F)c1-c1ccccn1)N1CCN(c2ncccn2)CC1 | i
CCOc1ccc2c(c1)O/C(=C\c1cccc(OC)c1OC)C2=O | i
C=CC(C)(C)OCC(O)CN1CCN(c2ccccc2OC)CC1 (configuration not stated) | i
COc1ccc(C2NC(=S)NC(C)=C2C(=O)Nc2ccc(Br)cc2)cc1OC (configuration not stated) | i
CC(=O)Cn1c(=O)c2c(nc3n(-c4cccc(Cl)c4C)c(-c4ccccc4)cn23)n(C)c1=O | i
COCCCn1c(-c2ccc(C)cc2)nc2oc3ccccc3c(=O)c2c1=O | i
Cc1noc(C)c1CNc1ncc2c(=O)n(C3CCCC3)c(=O)[nH]c2n1 | i
COc1ccc(CCNC(=O)C2CCCN(c3cnc4ccccc4n3)C2)cc1OC (configuration not stated) | i
CN(C)c1cc2c(Nc3ccc4nc(Cc5ccccc5)[nH]c4c3)ncnc2cn1 | i
O=C(CCCS(=O)(=O)Cc1ccccc1)NCc1ccccc1 | i
COc1ccc(NC(=O)c2ccc3nn(CC(=O)Nc4ccc(C(C)C)cc4)c(=O)n3c2)cc1 | i
COc1ccc(CNC(=O)c2cn(-c3cccc(Cl)c3)nn2)c(OC)c1 | i
COCCNC(=O)C12CC3CC(C1)CC(c1ccccc1)(C3)C2 | i
Cc1c(C(=O)N2CCC(Oc3ncccc3Cl)CC2)cnn1-c1ccccc1 | i
COc1ccc(OC)c(NC(=O)C(=O)NCCN2CCN(c3ccc(Cl)cc3)CC2)c1 | i
Cc1c(C(=O)NC2CCCC2)nnn1-c1ccc2noc(-c3ccc(Cl)cc3)c2c1 | i
SMILES | GIRK2 activ
CCCc1ccc(C(=O)N2CCOC3(CCOCC3)C2)cc1 | i
Cn1c(C(F)(F)F)nn(CCNC(=O)NCc2cccs2)c1=O | i
COC(=O)C1c2ccsc2CCN1C(=O)NCCc1ccccc1 (configuration not stated) | i
O=C(c1nnn(-c2ccc(F)cc2)n1)N(Cc1ccccc1)c1ccccc1 | i
CC(=O)NC(Cc1ccccc1)C(=O)NC(C)(C)C(=O)NC(C)(C)C(=O)NC(C)(C)C(=O)NC(C(=O)NCC(=O)NC(CC(C)C)C(=O)NC(C)(C)C(=O)NC(C)(C)C(=O)N1CC(O)CC1C(=O)NC(CCC(N)=O)C(=O)NC(C)(C)C(=O)N1CC(O)CC1C(=O)NC(C)(C)C(=O)NC(CO)Cc1ccccc1)C(C)C (configuration not stated) | i
O=C(N1CC(c2nc(-c3cccs3)no2)C1)C1(c2ccccc2)CCOCC1 | i
CSCC(C)(O)CNC(=O)C(C)(C)C (configuration not stated) | i
Cc1cc(NC(=O)c2ccc(F)c(F)c2)n(-c2nc3c(cnn3-c3cccc(C)c3C)c(=O)[nH]2)n1 | i
COCCNC(=O)/C(C#N)=C1\N=C(NC(=O)c2ccc(Cl)cc2)c2ccccc21 | i
COC(=O)c1sccc1S(=O)(=O)NCC1COC2(CCCCC2)O1 (configuration not stated) | i
COc1ccc(C(=O)Nc2ccc3c(c2)CCCN3C(=O)C(C)C)cc1 | i
COc1cccc(CNC(=O)Cn2c(=O)c(-c3ccccc3)nc3ccccc32)c1 | i
CCOc1ccc(-c2ccc(=O)n(CCNS(=O)(=O)c3cccnc3)n2)cc1 | i
Cc1cc(OCC(=O)Nc2cccc(Cl)c2C)nc(N2CCN(c3ccccc3)CC2)n1 | i
CCOc1ccc(C(=O)N2CCN(c3ncnc4c3nnn4-c3ccccc3)CC2)cc1OCC | i
CC(C)(C)OC(=O)Cn1cnc2c(-c3cccc(Cl)c3)csc2c1=O | i
COC(=O)/C=c1/s/c(=C(/C#N)C(=O)N2CCOCC2)n(-c2ccccc2)c1=O | i
CC(Oc1ccc(F)cc1)C(=O)Nc1cc(N2CCOCC2)ncn1 (configuration not stated) | i
CCCCC/C=C\C/C=C\CC/C=C\CCCC(=O)OCC | i
CCCc1nnsc1C(=O)Nc1ccc(-c2cnc3n2CCC3)cc1 | i
Cc1cc(C)cc(N(Cc2c(F)cccc2Cl)S(=O)(=O)c2cccn3cnnc23)c1 | i
O=C1CCC(c2nc(C3CC3)no2)N1Cc1ccccc1 (configuration not stated) | i
CCn1c(=O)c2c(nc3n(-c4cc(OC)ccc4OC)c(-c4ccccc4)cn23)n(C)c1=O | +
COC(=O)C(C)Oc1ccc2c(=O)c(-c3ccccc3)c(C(F)(F)F)oc2c1 (configuration not stated) | i
COc1ccc(S(=O)(=O)NCCn2nc(-c3ccc(Cl)cc3)ccc2=O)cc1OC | i
SMILES | GIRK2 activ
CC(Cc1cccs1)NC(=O)/C=C/c1ccc2c(c1)OCO2 (configuration not stated) | i
COc1cccc(N2N=NC3C(=O)N(c4ccc(C)c(Cl)c4)C(=O)C32)c1 (configuration not stated) | i
Cc1ccnc(NS(=O)(=O)c2ccc(NC(=O)CCOc3ccccc3)cc2)n1 | i
CC(=O)N1CCc2c(sc(NC(=O)C3COc4ccccc4O3)c2-c2nc3ccccc3s2)C1 (configuration not stated) | i
Cc1cccc(-n2c(C)cn3c4c(=O)n(CCN5CCOCC5)c(=O)n(C)c4nc23)c1 | i
Cc1c(/C=C/C(=O)c2ccccc2)cnn1C | i
COc1c2c(c(O)c3c(=O)c4c(OC)c(O)ccc4oc13)C1CCCC(C)(O2)O1 (configuration not stated) | i
CCCCN1C(=O)NC(c2ccccc2)C(c2nc(-c3ccccc3)no2)=C1C (configuration not stated) | i
COc1ccccc1NC(=O)CN1N=NC2C(=O)N(c3ccc(Br)cc3)C(=O)C21 (configuration not stated) | i
CCOc1ccc(S(=O)(=O)Nc2ccc3c(c2)CCC(=O)N3)cc1C | i
CCN(CC)c1nc2nc(SCC(=O)Nc3ccc4c(c3)CCC4)n(C(C)C)c(=O)c2s1 | i
Cn1c(=O)n(CCN2CCCCC2)c(=O)c2c1nc1n2CCN1c1ccc(Oc2ccccc2)cc1 | i
COc1ccc(NC(=O)c2cnc(N3CCN(C4CCCCC4)CC3)nc2N)cc1 | i
Cc1ccnc(Nc2cc(N3CCN(C(=O)c4cnccn4)CC3)nc(C)n2)c1 | i
CC(C)c1ccc(NC(=O)c2cc(OCc3ccccc3)no2)cc1 | i
COC(=O)C1=C(C)N(C)C(=O)NC1c1ccc(O)c(O)c1 (configuration not stated) | i
O=C(c1ccc(OC(F)(F)F)cc1)N1CCC(Oc2ccccn2)CC1 | i
O=C(CCSc1ccc(F)cc1)Nc1nnc(-c2ccsc2)o1 | i
Cc1ccccc1Oc1ccc(S(=O)(=O)N2CCN(c3ccccc3)CC2)cc1 | i
CCOc1cc2occ(-c3ccc4c(c3)OCCO4)c(=O)c2cc1CC | i

Some of the compounds tested; the hit share may differ from the screen's.
